From PubChem BioAssay
HPGD inh – inhibitors of human 15-hydroxyprostaglandin dehydrogenase (HPGD); P15428; purified HPGD, NADH fluorescence kinetic, PGE2 substrate; Potency, µM, for the others: at the top dose activity change, negative = inhibition, most hits filed as inhibitors; actives 4.3% (n = 150,000); AID 894; active = well fitted inhibition curve with a large enough effect (not every such curve was filed as active); inconclusive = small, poorly fitted or top-dose-only effect, or another doubt; inactive = no such curve, though single readings can be large or run the other way;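 also: top concentration of the series not given in the record; plate controls included wells without enzyme; inactives centre near -10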
Target sequence (P15428 whole entry, looked up): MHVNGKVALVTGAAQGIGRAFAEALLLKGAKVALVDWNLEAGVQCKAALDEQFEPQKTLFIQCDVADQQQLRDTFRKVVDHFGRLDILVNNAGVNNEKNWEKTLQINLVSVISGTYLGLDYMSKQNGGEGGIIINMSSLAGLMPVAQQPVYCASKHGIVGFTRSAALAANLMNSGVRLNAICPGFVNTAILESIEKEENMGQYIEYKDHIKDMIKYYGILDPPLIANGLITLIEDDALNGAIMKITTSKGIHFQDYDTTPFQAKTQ
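NADH formation kinetics: reaction with 30 uM PGE2 and 1 mM NAD+ (final), 20 nM enzyme, Tris-HCl pH 8 with Tween 20, after 15 min compound preincubation at room temperature. Fluorescence change, last versus first of five reads.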
Active calls of the source: *; ? = inconclusive; & = joins results of further samples. % is scaled to controls: 0 for no effect and ±100 for the full control effect; potency is read from the fitted curve at half-maximal effect.

SMILES	HPGD inh
COc1ccc(NC(=O)CN2CCC3(O)CCCCC3C2c2cc(OC)ccc2OC)cc1 (stereo unspecified)	-4.3%
CC1=C2[C@@H]([C@H](C)CC[C@H]2/C=C(\C)C(=O)O)[C@H](O)C1	-9.8%
CCn1c(SC(C)C)nnc1C1CCN(S(=O)(=O)c2ccc(OC)cc2)CC1	-4.7%
O=C(Nc1cccc(C(F)(F)F)c1)c1cc2ncc(Br)cn2n1	?
O=C1C2C3c4ccccc4C(c4ccccc43)[C@@H]2C(=O)N1c1nc(-c2ccccc2)cs1 (stereo partly specified)	-11.9%
CS(=O)(=O)N1CCC2(CCCN(Cc3ccccc3)C2)CC1	-5.1%
NNC(=O)CNC(c1ccccc1)c1cc(Br)ccc1NC(=O)c1ccc(Br)cc1 (stereo unspecified)	?
COc1cccc(NC(=O)CCN2C(=O)c3ccccc3S2(=O)=O)c1	-11.4%
CCC(C)NCCOCCSc1ccc(Cl)cc1 (stereo unspecified)	-10.4%
Clc1ccc(C2CC(c3cccs3)n3ncnc3N2)cc1Cl (stereo unspecified)	-3.0%
CSc1cccc(NC(=O)C2CCCN(S(=O)(=O)c3cnc[nH]3)C2)c1 (stereo unspecified)	-0.2%
Cc1ccc(C(=O)ONc2ccc(N=O)cc2)cc1	-5.9%
N/C(CN1CCCC1=O)=N\OC(=O)c1ccc(Cl)cc1	-8.6%
Cc1ccc(Cc2cnc(NC(=O)/C(C#N)=C/c3ccc(-c4cccc([N+](=O)[O-])c4)o3)s2)cc1	-8.1%
Cc1ccccc1CS(=O)(=O)CCC(=O)NCCN1CCN(c2cccc(Cl)c2)CC1	-19.4%
c1ccc(OCCOc2ncnc3ccccc23)cc1	-14.6%
CCCCC(C)(O)C/C=C/[C@H]1[C@H](O)CC(=O)[C@@H]1CCCCCCC(=O)OC (stereo partly specified)	-5.1%&-11.2%
Cc1ccc(C(C)NC(=O)/C(C#N)=C\c2c(C)[nH]c3ccccc23)cc1 (stereo unspecified)	-15.8%
COc1ccc(/C=C/C(=O)c2ccccc2O)cc1	-26.7%
C/C(N)=C(/C#N)C(=O)CSc1nnc(Nc2cccc(C)c2C)s1	28.2µM*
CCS(=O)(=O)/N=C(\N)c1ccccc1	-3.5%
Cc1ccc(NC(=O)CN(C)C(=O)c2ccc(Cl)c([N+](=O)[O-])c2)cc1	-11.7%
C=CCn1c(SCC(=O)Nc2ccc(C(=O)OCC)cc2)nnc1-c1cccs1	-8.3%
COc1ccc(N2CC(C(=O)Nc3cc(C)on3)CC2=O)cc1 (stereo unspecified)	-10.5%
COC(=O)c1ccc(Cn2cnc3c(cnn3-c3ccc(Cl)cc3)c2=O)o1	-15.3%

Printed as active in HPGD inh (from the list above):
SMILES	HPGD inh
C/C(N)=C(/C#N)C(=O)CSc1nnc(Nc2cccc(C)c2C)s1	28.2µM*

Following part
SMILES	HPGD inh
COc1ccccc1C(O)(C(=O)NN(C)c1ccccc1)c1ccccc1OC	-1.4%
Cc1nn(-c2cc(N3CCOCC3)ccc2N)c(=O)c2ccccc12	-12.9%
O=C(Nc1ccc(S(=O)(=O)NC2CCCCC2)cc1)c1ccc(Br)o1	14.1µM*
CN(C)C(=O)CSc1nnc2sc3ccccc3n12	-10.9%
COc1ccc(CNc2nc3ccccc3n2Cc2ccc(C)cc2)cc1OC	-16.3%
CC1COC2C(O1)N(S(C)(=O)=O)CCN2S(C)(=O)=O (stereo unspecified)	-6.1%
Cn1c2ccccc2c2ncn(Cc3ccco3)c(=O)c21	?
C/C(Cn1nc([N+](=O)[O-])cc1C)=N\NC(=O)COc1ccc(Cl)cc1Cl	-13.3%
CC(=O)c1c(C)[nH]c(C(=O)N2CCc3ccccc32)c1C	-19.5%
CCOC(=O)Cn1c(=O)oc2cc(S(=O)(=O)N3CCCc4ccccc43)ccc21	-12.6%
CCCn1c(SCC(=O)Nc2c(C)cccc2C)nnc1C(C)C	0.3%
Cc1cccc(CNc2ncncc2-c2ccccc2C(F)(F)F)c1	-7.8%
COc1ccc(OCCNC(=O)/C=C/c2ccc([N+](=O)[O-])cc2)cc1	-20.1%
CC(C)C[C@H](NC(=O)OC(C)(C)C)c1nnc(SCc2cccc(F)c2)o1	-25.1%
COC(=O)c1sc2nc(-c3ccccc3)c3c(c2c1N)CCCC3	-15.9%
CCn1c(COc2ccc(=O)n(-c3ccccc3)n2)nnc1SCc1ccc(C)cc1	-24.3%
Cn1c(SCc2n[nH]c(=S)n2-c2ccccc2)nnc1-c1ccccc1	-0.8%
Nc1oc2ccccc2c(=O)c1C=O	-13.0%
COc1ccc(C2/C(=C(\O)c3ccc(OC)c(Cl)c3)C(=O)C(=O)N2CCN(C)C)cc1 (stereo unspecified)	-3.1%
OC(c1ccccn1)c1c[nH]c2ccccc12 (stereo unspecified)	0.2%
C[C@@H]1NC(=O)[C@H](CCC(N)=O)NC(=O)c2cc([N+](=O)[O-])cc(I)c2NCCC[C@@H](C(N)=O)NC1=O	-22.8%
COCCN1C(=O)c2ccc(C(=O)Nc3nccs3)cc2C1=O	-9.5%
O=S(=O)(NCCOC12CC3CC(CC(C3)C1)C2)c1cccc2nsnc12	0.5%
CN1CCN(c2ccc(C(=O)c3ccc(F)cc3)cc2)CC1	-10.0%
O=C(C1=C[C@@H]2[C@H]3C(=O)N(c4ccc(Cl)cc4)C(=O)[C@H]3[C@@H](C(=O)c3ccc(Cl)cc3)N2C=C1)c1ccccc1	31.6µM*

Arranged by molecular weight (rising): part of the list above
SMILES	HPGD inh
COC(=O)c1sc2nc(-c3ccccc3)c3c(c2c1N)CCCC3	-15.9%
O=S(=O)(NCCOC12CC3CC(CC(C3)C1)C2)c1cccc2nsnc12	0.5%
C[C@@H]1NC(=O)[C@H](CCC(N)=O)NC(=O)c2cc([N+](=O)[O-])cc(I)c2NCCC[C@@H](C(N)=O)NC1=O	-22.8%

Going on with the list.
SMILES	HPGD inh
Cc1ccc2cc(C3CC(c4ccco4)=NN3S(=O)(=O)c3ccccc3)c(Cl)nc2c1 (stereo unspecified)	-15.0%
CCOC(=O)N1CCN(C(=O)Cc2ccc(C)cc2)CC1	6.4%
CC1(C)C(=O)NCCN1C(=O)CSc1nccc(-c2ccc(Br)cc2)n1	5.2%
O=C(CCc1nc2ccccc2c(=O)[nH]1)OCC(=O)c1cccc(Cl)c1	-9.3%
O=S(=O)(Nc1ccc(N2CCCCC2)cc1)c1cccs1	25.1µM*
COc1ccc(C(C)(C)C)cc1NC(=O)C1CC=CCC1C(=O)O (stereo unspecified)	-0.9%
Cc1ccc(-c2cc(=O)c3cc(C)ccc3[nH]2)cc1	?
O=C(NCCSCc1ccccc1)c1cc(S(=O)(=O)N2CCOCC2)ccc1F	-0.7%
O=C(OCCN1C(=O)c2ccccc2C1=O)c1cc2ccccc2o1	-18.1%
N#CCc1nc(CSc2nc3ccccc3s2)cs1	25.1µM*
CCOC(=O)CSc1nnc(NC(=O)c2cccc(S(=O)(=O)N3CCCCC3)c2)s1	-6.9%
CCCCCNC(=O)Cc1cc(=O)[nH]c(=O)[nH]1	-3.6%
N#Cc1cccc(NC(=O)N2CC3(CCN(C(=O)c4cccc(F)c4)CC3)C2)c1	-23.6%
COC(=O)C1=C(C)NC(=O)C1(Nc1ccc(Cl)cn1)C(F)(F)F (stereo unspecified)	-13.0%
CCOc1cc(/C=C/C(=O)c2ccc(C)cc2)ccc1OCC(=O)N(C)C	-6.6%
CSc1ccccc1NC(=O)c1c(C)noc1C	-9.1%
CC1CCN(CCC(=O)Nc2ccc3c(c2)CCC3)CC1	3.1%
O=C(c1cnn2c(C(F)F)cc(C3CC3)nc12)N1CCOCC1	-12.6%
CC1CC(=O)N(CC(=O)N2CCCC2)c2ccccc2S1 (stereo unspecified)	-5.6%
CCOc1ccc(Nc2nc(N3CCCCC3)nc(N3CCCCC3)n2)cc1	-21.5%
COc1cc(C(C)=O)ccc1OC(=O)C(C)N1C(=O)c2ccccc2C1=O (stereo unspecified)	-6.0%
O=C(NCCc1c[nH]c2ccccc12)C(F)(F)F	-24.4%
CCCC(c1nnnn1CC1CCCO1)N1CCN(c2nc3ccccc3s2)CC1 (stereo unspecified)	-9.2%
O=c1c2c(nc3n1CCCCC3)sc1c(O)c(Br)ccc12	-12.5%
Cc1ccc(NCc2nnc(SC(C)C(=O)N/N=C/c3ccc(C)o3)n2-c2ccccc2)cc1 (stereo unspecified)	-10.4%
The listing continues:
SMILES	HPGD inh
CCOC(=O)N1CCN(C(=O)CN(c2ccccc2OC)S(=O)(=O)c2ccc(C)cc2)CC1	-3.5%
COc1cc(C2C(C#N)=C(N)OC3=C2C(=O)CC(C)(C)C3)ccc1OC(=O)N1CCOCC1 (stereo unspecified)	-11.2%
COC(=O)C1Sc2[nH]c(=O)sc2C(c2ccc(Cl)cc2)C1C(=O)OC (stereo unspecified)	-14.4%
Cc1cccc(C)c1OCCCN1CCCC1	-6.6%
Oc1c(Br)cc(Cl)cc1C=Nc1ccccc1Br	-15.3%
COc1ccc(O)c(/C=C(\C#N)C(=O)Nc2cccnc2)c1	-26.6%
CC(=O)Nc1ccc(OCC(O)CN2CCCCC2C)cc1 (stereo unspecified)	2.3%
Cc1nn(Cc2ccc([N+](=O)[O-])cc2)c(=O)n1-c1cccc(F)c1	-1.4%
CCC1CCCCN1C(=O)CCCOc1ccccc1 (stereo unspecified)	?
COc1ccc(N(C)C(=O)c2ccc3nc(-c4ccccc4)c(-c4ccccc4)nc3c2)cc1	-18.5%
CCCCNC(=O)CSc1nnc(NC(C)=O)s1	-11.1%
C=CCSc1[nH]c(=O)cc(C)c1C(N)=O	-7.6%
Cc1csc2ncc(C(=O)Nc3cccc(C(F)(F)F)c3)c(=O)n12	-18.6%
CCOC(=O)c1ccc(NC(=O)CSc2nnnn2C2CCCCC2)cc1	0.4%
CCSC1=N/C(=C\c2ccccc2)C(=O)N1	-26.4%
Cc1ccc(S(=O)(=O)N(C)CC(=O)N2CCCc3ccccc32)cc1	-23.1%
CCN(CC)Cc1c(O)ccc2c([N+](=O)[O-])c(C)n(-c3ccc(OC)cc3)c12	-8.6%
COc1cccc(C(=O)Nc2ccccc2)c1	-20.7%
Cc1cccc(CS(=O)(=O)c2nnc([C@H](Cc3ccccc3)NC(=O)OC(C)(C)C)o2)c1	14.1µM*
c1ccc(-c2csc(Nc3cccnc3)n2)nc1	-5.5%
CN(CC(=O)NCCc1ccccc1)S(=O)(=O)c1cccc2nsnc12	-17.3%
COC(=O)N1CCN(S(=O)(=O)c2ccc(F)cc2)CC1	-8.4%
CCOC(=O)c1c(C(=O)OCC)c(C)n(CCc2ccccc2)c1C	-4.2%
Cc1ccc(OCCCN2CCCC2)c(C)c1	2.5%
CC(=O)c1nn(-c2cccc(Br)c2)cc1C(=O)c1ccc(Cl)cc1	-3.5%

Reformatted: 4 of the compounds above
CCOC(=O)Cn1c(=O)oc2cc(S(=O)(=O)N3CCCc4ccccc43)ccc21
  HPGD inh: -12.6%

CCCn1c(SCC(=O)Nc2c(C)cccc2C)nnc1C(C)C
  HPGD inh: 0.3%

Cc1cccc(CNc2ncncc2-c2ccccc2C(F)(F)F)c1
  HPGD inh: -7.8%

COc1ccc(OCCNC(=O)/C=C/c2ccc([N+](=O)[O-])cc2)cc1
  HPGD inh: -20.1%

Back to the main list with the two entries that preceded the break.
SMILES	HPGD inh
Cc1ccc(OCCCN2CCCC2)c(C)c1	2.5%
CC(=O)c1nn(-c2cccc(Br)c2)cc1C(=O)c1ccc(Cl)cc1	-3.5%
COc1cccc([C@@H]2Oc3ccc(OC)cc3C(=O)[C@H]2OC(=O)Nc2ccc(C)c(Br)c2)c1	-14.2%
O=C1C(Cc2ccccc2)S/C(=N/N=C/c2ccco2)N1c1ccccc1 (stereo unspecified)	-16.6%
COC(=O)CNc1c(-c2ccccc2)nc2ccc(Br)cn12	-11.7%
Cc1cc(N2CCOCC2)nc2ccc(Cc3ccc4nc(N5CCOCC5)cc(C)c4c3)cc12	?
O=C(Cn1c(=O)n(-c2ccccc2)c(=O)c2sccc21)N1CCCC1	-3.8%
COc1ccc([N+](=O)[O-])cc1NC(=O)C(C)OC(=O)/C=C/c1ccco1 (stereo unspecified)	28.2µM*
CCC1(C)CC(CCNS(=O)(=O)c2ccc(C)cc2)(c2ccc(C)cc2)CCO1 (stereo unspecified)	-6.4%
Cn1c(=O)c2cc(S(=O)(=O)NCCC(=O)NC3CCCCCCC3)ccc2n(C)c1=O	-5.6%
Cn1c(=O)c(-c2cccc(Cl)c2)nc2cncnc21	-21.9%
COc1ccccc1NS(=O)(=O)c1cc(NC(=O)c2ccc(=O)[nH]c2)ccc1N1CCOCC1	-2.2%
Cc1ccc(N(Cc2ccc(C(=O)NC3CCCCC3)cc2)S(C)(=O)=O)cc1C	-8.2%
CCN(CC)S(=O)(=O)c1ccc(OC)c(NS(=O)(=O)c2ccc(F)cc2)c1	2.6%
CN1C(=O)c2ccc(N3CCCC3)cc2C1=O	-29.7%
CSc1cccc(NC(=O)CCCOc2ccccc2)c1	-12.4%
O=C(CCl)N(c1ccccc1)C1CCS(=O)(=O)C1 (stereo unspecified)	-1.4%
CN(C)Cc1ccccc1-c1ccc2ncnc(NC3CCNCC3)c2c1	-9.0%
CC[C@@H](C)[C@H](NC(=O)C1CCN(C(=O)[C@@H](NS(=O)(=O)c2ccc(C)cc2)C(C)C)CC1)C(=O)O	-7.3%
CC(C)n1c(/C=C/c2ccccc2)nc2ccccc21	?
Cc1ccccc1-n1nc(C)c2cc(C(=O)NCc3cccnc3)sc21	?
CCC1=C(OC(=O)N(CC)CC)N2C(=O)OC(=NCc3ccccc3)[C@]2(C)[C@H]2C1=CC[C@H]1C(=O)N(c3ccccc3)C(=O)[C@H]12	-13.6%
O=c1[nH]c(CSc2nc3ccccc3o2)nc2c1cnn2-c1ccccc1	-17.8%
N#Cc1nc(-c2cccs2)oc1NCc1ccc(Cl)cc1	?
O=C(NCc1cccnc1)c1ccc(COc2cccc3ccccc23)o1	-27.6%

Some of the compounds tested; rates above refer to the full screens.
